LANA-nucl inh – inhibitors of KSHV LANA binding to nucleosomes; actives 0.3% (n = 51,000); AID 720717; FITC-LANA1-23 / chicken nucleosome fluorescence polarization; active compounds read low; z-score (concentration not given with the values);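 active means both repeat wells score below -2 in polarization z-score versus plate sample wells, excluding overly bright wells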;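 further: 100 nL library stock added to about 30 µL; numbers are from one replicate; some results filed as inactive read as strong as hits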
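Test system: purified chicken nucleosomes with FITC-labelled LANA N-terminal peptide (1-23); Input: 240 nM purified chicken nucleosomes (480 nM peptide binding sites), final; Medium: TEN-BT buffer, pH 7.5; Timing: 10–45 min, room temperature; Technique: fluorescence polarization, 480 nm excitation, 535 nm parallel and perpendicular emission; Replication: duplicates.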
BasE inh – BasE siderophore biosynthesis inhibition; AID 485350; purified BasE, fluorescence polarization binding displacement; actives 0.1% (n = 84,000); inhibition, % (test concentration not listed);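 active means both replicates above 25% with normal brightness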;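 further: 0% = negative plate control signal and 100% = positive plate control signal; stock transfer was 100 nL into about 30 µL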
Active calls of the source: *; nt = no result given; & = joins results of further samples.

compound | LANA-nucl inh | BasE inh
Cc1cc(C)cc(N2C(=O)N(CC(=O)N3CCOc4ccc(C)cc43)C3CS(=O)(=O)CC32)c1 (stereo not given) | 0.13 | 0.1
Cc1cccc(CN2CCN(CC(=O)O)C2=O)c1 | -0.8 | 0.6
S=c1nc2c(cnn2-c2ccccc2)c(Nc2ccccc2)[nH]1 | nt | 1.1
CCN(C(=O)Cn1ncc(Cl)c(Cl)c1=O)c1ccccc1 | nt | -0.5
Cc1ccc(Nc2nc(CSc3nnnn3Cc3cccs3)cs2)cc1 | nt | -2.3
C=CCSc1nnc(NC(=O)CN(C)S(=O)(=O)c2ccc(Cl)cc2)s1 | nt | 0.6
CCN1CCSc2ccc(C(=O)NCCC(C)C)cc21 | 0.08 | 0.7
CCn1nnc(-c2ccccc2N)n1 | -0.73 | -1.5
CC[C@H]1CN2CCc3cc(OC)c(OC)cc3C2C[C@@H]1CC1NCCc2cc(OC)c(OC)cc21 (stereo not given in full) | 0.046&-1.4 | -2.0
C/C(=N\NC(=O)C1CC1(C)c1ccccc1)c1ccco1 (stereo not given) | -0.88 | 1.1
O=C(O)C1CCN(c2ncnc3sccc23)CC1 | nt | -1.0
Cc1noc2ccccc12 | nt | 1.0
Cc1cc(C)n(-c2nc3cc(Cl)ccc3nc2NCc2ccc3c(c2)OCO3)n1 | 1.4 | -4.0
O=C(NCCCN1CCOCC1)C1CCN(C(=O)c2cnn(-c3ccccc3)c2-n2cccc2)CC1 | -1.2 | -20
CN(C)c1ccc(/C=C2\C(=O)NC(=O)N(C3CCCC3)C2=O)o1 | 0.56 | -1.5
N#Cc1c2n(c3c(=O)[nH]cnc13)CCCC2 | -0.24 | 4.1

Fetched by compound from the entries so far (3):
compound | LANA-nucl inh | BasE inh
Cc1noc2ccccc12 | nt | 1.0
N#Cc1c2n(c3c(=O)[nH]cnc13)CCCC2 | -0.24 | 4.1
O=C(O)C1CCN(c2ncnc3sccc23)CC1 | nt | -1.0

Other compounds follow:
compound | LANA-nucl inh | BasE inh
COC(=O)/C=C1\SC(=O)NC1=O | nt | 2.9
COC(=O)c1ccccc1NC(=O)Cn1ncc2c(=O)oc3ccccc3c21 | 0.064 | 0.0
Cc1nn(Cc2ccccc2)c(C)c1C(=O)NCCN1C(=O)S/C(=C\c2cccs2)C1=O | nt | 2.1
CCOC(=O)/C(C#N)=N\Nc1ccccc1OC | 0.35 | -17
CCN1C(=O)CC(NC2CCN(C(=O)c3ccc(F)cc3)CC2)C1=O (stereo not given) | 0.038 | 2.6
CC(C)C(NC(=O)c1ccco1)C(=O)Nc1sc2c(c1C(N)=O)CCC2 (stereo not given) | nt | -1.7
CCOC(=O)c1cnc(C(C)(C)C)[nH]c1=O | -0.099 | 0.2
CC1(C)CC(=O)C=C(N2CCNCC2)C1 | 0.37 | -0.6
CCc1ccc(N2C(=O)CC(Sc3nnc(N)s3)C2=O)cc1 (stereo not given) | 2.2 | 0.4
COC(=O)c1ccc(CS(=O)(=O)c2ccc(Br)cc2)o1 | 0.59 | 3.1
O=C1/C(=C/c2cccs2)SC(=S)N1CCCN1CCOCC1 | 1 | 1.8
CCCCn1c(=S)[nH]c2c1c(=O)[nH]c(=O)n2C | nt | 3.4
N#Cc1ccc(OCc2cnc(Cl)s2)cc1 | 0.45 | nt
O=C(CCSc1nnnn1-c1ccccc1)N1CCOCC1 | 0.27 | 0.6
CCOC(=O)Cc1csc(SCC(=O)N2c3ccccc3NC(=O)C2(C)C)n1 | nt | 1.5
O=C(CC1Oc2ccccc2NC1=O)NCCCN1CCN(C2CCCCC2)CC1 (stereo not given) | 0.49 | 0.8
NC12CC3CC(C1)CC(CC(=O)O)(C3)C2 | -0.29 | 3.2
O/N=C/c1c(Cl)nc2sccn12 | 0.39 | nt
CC1CCN(CCNS(=O)(=O)c2ccc3c(c2)CCCC(=O)N3)CC1 | nt | -0.6
O=C(NCCCN1CCCCC1)c1ccc(-n2ccc3ccccc32)s1 | 1.1 | -13
OC(CN1CCN(c2nc3ccc(Cl)cc3s2)CC1)Cn1ccc2ccccc21 (stereo not given) | 0.39 | -0.2
O=C(N/N=C/C=C/c1ccccc1)NC1CCCCC1 | nt | 1.4
CCOC(=O)CSc1nc(-c2ccccc2)nc2c1oc1ccccc12 | 1 | 0.7
Cc1ccc(C(=O)Nc2ccc3ccccc3n2)cc1 | nt | 3.3
NC(=S)N/N=C/c1cn(-c2ccccc2)nc1-c1cccnc1 | nt | 0.6
COc1ccccc1C(=O)Nc1ccc(N2CCCCC2)cc1 | -0.16 | -1.1
CCCc1cc(NCc2cccnc2)n2c(nc3ccccc32)c1C#N | -0.94 | 0.5
CCOC(=O)NC(=S)N1C(C)CCCC1C (stereo not given) | nt | -0.8
Cc1[nH]nc2ncc(C(=O)c3ccccc3O)cc12 | nt | -0.1
c1ccc2c(CNn3cnnc3)cccc2c1 | -0.69 | -1.4
N#Cc1oc2ccccc2c1NC(=O)COC(=O)c1ccc(N2C(=O)c3ccccc3C2=O)cc1 | nt | 4.7
O=C(NCC(c1ccco1)N1CCCC1)c1ccc(-c2nc3ccccc3s2)s1 (stereo not given) | nt | -2.6
O=C(NCc1ccco1)C(c1ccccc1)N(C(=O)Cc1cccs1)c1cccnc1 (stereo not given) | -0.35 | -0.8
CC1CCCC(C)N1C(=O)CN(C)S(=O)(=O)c1ccc(Cl)cc1 (stereo not given) | -0.88 | 3.5
O=C(COC(=O)c1cccc2ccccc12)NC1CCS(=O)(=O)C1 (stereo not given) | nt | 2.5
CC(C)NCC(=O)Nc1ccc(S(N)(=O)=O)cc1 | nt | 0.1
Cc1ccc(C(=O)N(C)Cc2ccccc2)c(Cl)c1 | -0.098 | 2.0
O=C(O)C1C2C=CC3(CN(CCc4ccccc4)C(=O)C13)O2 (stereo not given) | nt | 0.9
CC1Cc2ccccc2N1C(=O)CSc1cccc[n+]1[O-] (stereo not given) | nt | 3.5
CCC1CSc2nc3ccsc3c(=O)n21 (stereo not given) | nt | 0.4
Cc1c(N=CN(C)C)c(=O)n(-c2ccccc2)n1C | nt | 3.1
CC1CCCCN1S(=O)(=O)c1ccccc1C(=O)O (stereo not given) | nt | 1.5
O=C(CSc1ccc(-c2ccco2)nn1)Nc1ccccc1 | -0.3 | 0.5
COc1ccc(S(N)(=O)=O)cc1C(=O)NCC(c1cccs1)N(C)C (stereo not given) | nt | -1.5
O=Nc1ccc(NNC(=O)c2ccccc2O)cc1 | 0.2 | 6.4
Cc1ccc(C2C3C(=O)N(C)C(=O)C3ON2c2ccccc2)cc1 (stereo not given) | nt | 0.7
Cn1c(=O)c2cc(S(=O)(=O)N3CCOCC3)ccc2n(C)c1=O | 0.44 | 3.0
Cn1cccc1C(=O)OCC(=O)N(Cc1ccccc1)C1CCS(=O)(=O)C1 (stereo not given) | nt | 0.6
CC(C)[C@H](NC(N)=O)C(=O)Nc1ccc(Cl)c(Cl)c1 | nt | -1.3
COCCCn1c(SCc2ccc(C(=O)O)cc2)n[nH]c1=O | nt | -0.7
CCOC(=O)Cc1ccc(-n2c(C)ccc2C)cc1 | 1.1 | -3.3
CC1CCN(CC(=O)NC2CC2)CC1 | 1.4 | -0.6
O=C(CCN1C(=O)/C(=C\c2ccco2)SC1=S)NN1CCOCC1 | 2.3 | -0.9
Cc1cc(Cl)ccc1OCCN(C)CCO | -0.77 | 0.3
O=C(COc1ccc(-c2nnco2)cc1)N(Cc1cccs1)c1ccc2c(c1)OCCO2 | nt | 1.6
Cc1cc(S(=O)(=O)N2CCOCC2)ccc1OCC(=O)Nc1ccc2c(c1)OCO2 | 0.0035 | 0.6

The list goes on:
compound | LANA-nucl inh | BasE inh
COC(=O)/C=C1/C(=O)N/C(=N\c2nc(C)cc(C)n2)N1c1cccc(C)c1 | nt | 2.1
CCOc1cc(C(=O)Nc2cc(Cl)ccc2OC)cc(OCC)c1OCC | nt | 1.8
COc1ccc2oc(=O)c(C(N)=O)cc2c1 | -0.18 | -1.3
COc1cc2c(cc1OC)CN(Cn1cnc3ccccc3c1=O)CC2 | nt | 0.9
COc1ccccc1CN(C)C(=O)CN1CCN(C(=O)c2cccs2)CC1 | nt | -2.5
CC1(C)CC(=O)c2cnc(N)nc2C1 | 2.2 | -0.5
O=C(C(Sc1ccccc1)c1ccccc1)N1CCOCC1 (stereo not given) | 0.21 | 0.8
COc1ccc(-c2nc3ccccc3n2CCOc2ccccc2)cc1 | nt | -6.0
O=c1ccc(-c2ccc(S(=O)(=O)NCCc3cccs3)o2)n[nH]1 | nt | 1.2
COc1ccc(O)c(C(=O)c2cnn(C(=S)Nc3ccccc3)c2N)c1 | nt | 1.4
CC1=C2C(=NCCN1)C(=O)N(c1ccccc1)C2c1cccs1 (stereo not given) | 0.93 | -1.2
CCN1C(=O)/C(=C/c2ccc(-c3ccc(Br)cc3)o2)N(CC)C1=S | nt | -2.5
C/C(CC12CC3CC(CC(C3)C1)C2)=N\NC(N)=O | nt | 2.2
COC(=O)c1cccc(OCC(O)CN(C)Cc2ccc(OC(F)F)c(OC)c2)c1 (stereo not given) | nt | 1.8
CCOC(=O)C1=C(c2ccccc2)Nc2ncnn2C1c1ccc(OCc2ccccc2)cc1 (stereo not given) | nt | -1.4
c1ccc(-c2cc3ccsc3o2)cc1 | nt | -0.2
CC1CCC(NC(=O)c2cc3oc4ccccc4c3n2C)CC1 (stereo not given) | 2.8 | 0.0
N#CC1=C(N)NC(SCC(=O)Nc2cccc3ccccc23)=C(C#N)C12CCCCC2 | nt | -0.3
CCN(CC)c1ncnc2sc3c(c12)CCCC3 | nt | -1.3
CCC(=O)c1cn(S(=O)(=O)c2ccc(C)cc2)c2ccccc12 | nt | 2.2
O=C(O)CCC(=O)Nc1sc2c(c1C(=O)O)CCCC2 | nt | 4.2
CSc1ccc(/C=C2\C(=O)N(C)N=C2C)s1 | nt | 1.5
CCCN1CCC(N2CCCC(C(=O)N(C)CCc3ccc(OC)c(OC)c3)C2)CC1 (stereo not given) | nt | -4.0
CCOC(=O)c1ccc2c(c1)nc(SCC(=O)Nc1ccccc1F)n2CC | nt | -1.3
CCCCc1cc(=O)oc2cc(C)c3c(C)c(C)oc3c12 | -0.71 | 1.8
CC1CCc2sc3ncnc(NCCCN(C)C)c3c2C1 (stereo not given) | 1.6 | -3.4
COc1ccc(Nc2nnc(SCc3nc4ccc(Cl)cc4n3CCO)s2)cc1 | nt | -0.3
OC(C#CCN1CCOCC1)(c1ccccc1)c1ccccc1 | 0.021 | -0.7
CC(=O)Nc1cc(C(=O)c2ccc(Cl)cc2)nn(-c2ccccc2)c1=O | nt | -0.3
COC(=O)c1ccccc1NS(=O)(=O)c1ccccc1 | 0.25 | -1.6
O=C(N/N=C1\CCCc2ccccc21)c1ccc(O)cc1 | nt | 13
Cc1ccc(CN2COc3c(cc4c5c(c(=O)oc4c3C)CCC5)C2)cc1 | 0.45 | 0.6
CCN(Cc1ccccc1)C(=O)CCn1ccc(C)n1 | -0.97 | 0.8
COc1cccc2cc(C(=O)C3=C(O)C(=O)N(CCCN(C)C)C3c3ccncc3)oc12 (stereo not given) | 0.071 | 1.0
Cc1nc(-c2cc(-c3nc(-c4ccc(C(F)(F)F)cc4)no3)no2)cs1 | -1.4 | 1.7
CCC(=O)c1ccc(OCC(O)CN(C)Cc2ccccc2OC)cc1 (stereo not given) | nt | 1.2
Cc1noc(C)c1COc1cccc(C(=O)OC2CCCCC2=O)c1 (stereo not given) | nt | 2.5
CCOc1ccc(-c2cc(C#N)on2)cc1 | -0.58 | -1.4
Cc1c(C#N)c(NC(=O)CSc2nc3ccccc3s2)n(CC2CCCO2)c1C (stereo not given) | nt | -1.2
CC(C)c1ccc(S(=O)(=O)Nc2cc(SCC(=O)O)c(O)c3ccccc23)cc1 | nt | 3.0
CCCCc1ccc(Oc2cc(N3CCOCC3)nc(-c3ccccc3)n2)cc1 | 0.37 | -0.9
CCOC(=O)c1ccc(NC(=O)CO/N=C/c2ccc3c(c2)OCO3)cc1 | nt | -0.6
CCOc1ccc(C(=O)Nc2cc3[nH]c(=O)[nH]c3cc2C)cc1OCC | 0.64 | 0.5
CC(C)N(C(=S)NC(=O)C1CC1)c1ccccn1 | nt | 0.6
O=C(Nc1ccccn1)NC12CC3CC(CC(C3)C1)C2 | 2.1 | -1.3
Nc1ccc2c3c(cccc13)C(=O)N(c1ccccc1)C2=O | nt | 17
O=C(NC1CCCCC1)C1CC1c1ccccc1 (stereo not given) | 0.048 | 1.8
CCN(C(=O)CO)c1c(N)n(Cc2ccccc2)c(=O)n(CC(=O)Nc2ccc(C)c(C)c2)c1=O | nt | 1.9
c1cc(N2CCCCC2)nnc1N1CCCCC1 | -0.9 | -2.1
OCCN1CNC(=S)NC1 | nt | -2.0
O=CNCc1nc2ccccc2n1Cc1ccccc1 | 0.99 | 1.2
CCOc1ccc(NC(=O)CN(C2=NC3CS(=O)(=O)CC3S2)c2ccccc2)cc1 (stereo not given) | 2.2 | -0.7
Cc1ccc(-n2nc(C)cc2NC(=O)CSc2nnc(C3COc4ccccc4O3)n2C)cc1 (stereo not given) | nt | -0.4

3 compounds already listed, sorted by the value under LANA-nucl inh, descending.
SMILES	LANA-nucl inh
CCOc1ccc(NC(=O)CN(C2=NC3CS(=O)(=O)CC3S2)c2ccccc2)cc1 (stereo not given)	2.2
O=CNCc1nc2ccccc2n1Cc1ccccc1	0.99
c1cc(N2CCCCC2)nnc1N1CCCCC1	-0.9

Some of the compounds tested; rates above refer to the full screens.
